TSHR ag – agonists of human thyroid stimulating hormone receptor; HEK293-CNG-TSHR cells (CNG channel as cAMP sensor), membrane potential dye, cAMP; 73,000 compounds, 0.48% hits; AID 926; P16473; Potency, µM (doses to about 57.1 µM), for the others: at the top dose activation, hits mostly activators; active = well fitted activation curve of enough size with the parental cells flat; inconclusive = any curve in the parental cells; inactive = parental cells flat and receptor cells flat or falling; further: potency means the concentration at half of the fitted maximal effect; % of control where 0% means no effect; weak receptor curves with flat parental cells got no call and are not listed
Target sequence (P16473 whole entry, looked up): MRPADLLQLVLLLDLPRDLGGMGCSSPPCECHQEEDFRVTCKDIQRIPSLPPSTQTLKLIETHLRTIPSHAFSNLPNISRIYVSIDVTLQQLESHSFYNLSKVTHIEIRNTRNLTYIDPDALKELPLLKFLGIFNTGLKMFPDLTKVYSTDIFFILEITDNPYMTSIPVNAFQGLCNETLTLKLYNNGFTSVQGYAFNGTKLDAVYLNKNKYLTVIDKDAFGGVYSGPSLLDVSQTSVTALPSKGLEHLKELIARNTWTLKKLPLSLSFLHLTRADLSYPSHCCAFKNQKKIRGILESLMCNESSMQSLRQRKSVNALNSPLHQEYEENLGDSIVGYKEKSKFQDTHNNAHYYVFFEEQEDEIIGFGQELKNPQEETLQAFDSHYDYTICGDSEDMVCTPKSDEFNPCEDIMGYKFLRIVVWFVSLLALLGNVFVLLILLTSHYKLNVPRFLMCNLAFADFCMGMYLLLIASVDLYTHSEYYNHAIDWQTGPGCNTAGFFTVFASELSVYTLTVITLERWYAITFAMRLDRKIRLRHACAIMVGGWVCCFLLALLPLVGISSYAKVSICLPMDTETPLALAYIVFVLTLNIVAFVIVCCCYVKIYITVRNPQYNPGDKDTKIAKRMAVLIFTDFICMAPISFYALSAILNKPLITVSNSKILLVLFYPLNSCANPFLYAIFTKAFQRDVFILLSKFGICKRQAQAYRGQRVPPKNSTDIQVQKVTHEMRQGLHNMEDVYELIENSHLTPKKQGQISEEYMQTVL
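HEK 293 cells stably expressing TSHR and a modified CNG channel, with CNG-only parental cells as counterscreen, were preloaded 60 min at room temperature with membrane potential dye containing 100 uM RO 20-1724. Compound exposure was 30 min, and depolarization was read as fluorescence at 590 nm.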
AID923 – qHTS Assay for Allosteric/Competitive Inhibitors of Caspase-1: Spectroscopic Profiling in AFC Spectral Region. compound fluorescence, AFC spectral region (405/520 nm); almost no hit is shown here. Potency, µM (titrated, usually from 57.5 µM), inactives show top-dose fluorescence increase, usual class: activators. 75,000 compounds, 1.1% hits. AID 923, 2007; active means well fitted activation curve with a large enough effect; inconclusive means small, poorly fitted or top-dose-only effect;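 further: potency means the concentration at half of the fitted maximal effect; 0% is about no effect; scaled to a free AFC standard on each plate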
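Compound autofluorescence profiled at 405 nm ex/520 nm em during kinetic caspase 1 run (50 nM enzyme, 5 uM Ac-WEHD-AFC, HEPES pH 7.5, 10 mM DTT). Titration up to 57 uM; baseline from regression intercept, normalized to AFC standard curve.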
Resorufin autofl – compound fluoresces in the resorufin spectral region. max dye-equivalent concentration, M. 59,000 compounds, 0.04% hits. Compound fluorescence, resorufin region 547/598 nm, buffer; stronger effect = higher value; active = above 10 nM dye equivalent; inconclusive = 1 to 10 nM; inactive = 1 nM or less; a few of its hits are not listed in these tables; further: highest value over a series up to 38 µM
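Read-out: intrinsic compound fluorescence at ex 547/em 598 nm after 15 min at RT in pH 8.0 Tris (100 mM). Values expressed as resorufin-equivalent concentration from per-plate standard series.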
A488 fluor – compound autofluorescence in A488 spectral region; compound autofluorescence, A488 spectral region, dye equivalency; stronger effect = higher value; max dye equivalency, M; 59,000 compounds, 0.1% hits; AID 591; active = above 10 nM dye equivalent; inconclusive = 1 to 10 nM; inactive = 1 nM or less; about half of its hits are not listed in these tables;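 further: highest value over a series up to 38 µM; compound alone in buffer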
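Readout is A488 dye-equivalent concentration, calibrated by a per-plate six-point Alexa 488 series. Compounds in 100 mM Tris buffer pH 8.0 were incubated 15 min at room temperature. Plates were imaged using 480 nm excitation/540 nm emission filters.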
A647 fluor – compound autofluorescence in A647 spectral region; Compound fluorescence, A647 channel (570/671 nm), Tris buffer; max dye-equivalent concentration, M; 59,000 tested, under 10 active; active means above 1 µM dye equivalent; inconclusive means 0.1 to 1 µM; inactive means 0.1 µM or less;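 further: values scaled relative to a standard on each plate; highest value over a series up to 38 µM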
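Each compound's intrinsic fluorescence at 570 nm excitation and 671 nm emission is measured across its concentration series in 100 mM Tris, pH 8.0, after 15 min at room temperature, and reported relative to an A647 curve.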
An asterisk follows results filed as active; i = inactive; ? = inconclusive; . = not tested or not shown; & = joins results of further samples; [ ] = remark or other dose. This is a subset; count on the stated rates, not on these rows.

Value order – A647 fluor, Resorufin autofl, AID923, TSHR ag, A488 fluor
> CC(=O)NCCNc1ncnc2ccc(-c3ccc(C(=O)N(C)C)cc3)cc12
  2.6e-08, i, 0.5%, 1%, i
> O=C(CSc1ccccn1)c1ccc2c(c1)OCO2
  ., ., -1.2%, 10%, .
> COc1ccc(-c2nc(C#N)c(NC(C)c3ccccc3)o2)cc1OC (stereo not given)
  2.5e-08, i, -0.1%, 21%, i
> Cc1ccc(S(=O)(=O)NC2(C(F)(F)F)NC(=O)N(C)C2=O)cc1 (stereo not given)
  3.1e-08, i, -1.6%, -1%, i
> O=C(c1cccnc1)N1CCN(Cc2ccc3c(c2)OCO3)CC1
  1e-09, i, 0.0%, -11%, i
> COCC(C)n1c(C)cc(C(=O)COC(=O)c2c(C)nn(-c3ccccc3)c2C)c1C (stereo not given)
  1.5e-08, i, 0.6%, ?, i
> C=CCNC(=O)c1sc(=S)n(-c2ccc(C(=O)OCC)cc2)c1N
  4e-09, i, -0.8%, 0%, i
> O=c1[nH]c(N2CCOCC2)nc2c1CCCC2
  1.2e-08, i, -1.6%, ., i
> CCN(CC)CCCN1C(=O)C(O)=C(C(=O)c2ccc(C)o2)C1c1cccs1 (stereo not given)
  ., ., 1.1%, -2%, .
> Cc1ccc(NC(=O)CS(=O)(=O)c2c[nH]c3ccccc23)c(C)c1
  1e-09, i, 1.2%, -1%, i
> NCC(=O)Nc1ccccc1
  1e-09, i, -0.7%[11.5 µM], ?, i
> CC(Sc1nnc(N)s1)c1ccccc1Cl (stereo not given)
  ., ., -1.0%, 7%, .
> CC(C)NC(=O)N1CC[C@@]2(CCCN(S(C)(=O)=O)C2)C1
  1.5e-09, i, 0.7%, ?, i
> CCOc1ccc(Oc2nc(Nc3ccc(C)cc3)nc(N(C)C)n2)nn1
  1e-09, i, 2.0%, 16%, i
> O=C1CC(c2cc3c(cc2Br)OCO3)C2=C(CCCC2=O)N1 (stereo not given)
  3.1e-08, i, 0.0%, -7%, i
> Cn1c(NC(=O)c2cccc(Cn3cc(Cl)cn3)c2)nc2ccccc21
  1.6e-08, i, -1.8%, ?, i
> COc1ccc(/C(O)=C2/C(=O)C(=O)N(CCN(C)C)C2c2ccc(F)cc2)cc1Cl (stereo not given)
  1.3e-09, i, -0.3%, 13%, i
> CCOC(=O)C1=C(CN2CCSCC2)NC(=O)NC1c1cc(C)ccc1C (stereo not given)
  5e-08, i, 2.1%, 13%, i
> CCNC(=O)CN(C1CCCCC1)S(=O)(=O)c1ccc(F)cc1
  ., ., 0.1%, 4%, .
> CN1CCC2(CC1)CCN(S(=O)(=O)c1ccccc1)CC2
  1.5e-09, i, 0.4%, ?, i
> CCOC(=O)C1CCN(Cc2ccccc2C(F)(F)F)CC1
  2e-08, i, -2.0%, 12%, i
> COC(=O)Cn1nc(-c2ccccc2)c2ccccc2c1=O
  2.8e-08, i, -0.3%, ., i
> Cc1cc2occ(CC(=O)O)c2cc1C
  3.8e-08, i, 0.5%, 6%, i
> O=C(O)c1ccc(COc2ccccc2Cl)cc1
  1e-09, i, -0.4%, 17%, i
> CC(=O)c1c(C)c[nH]c1C
  1e-09, i, -0.5%, -4%, i
> Cc1nc(NC(CC(C)C)C(=O)O)c2nc(C)oc2n1 (stereo not given)
  3.9e-08, i, 0.9%, 12%, i
> CNc1oc(-c2ccco2)nc1C#N
  4.9e-09, i, 0.7%, -1%, i
> COC(=O)c1ccc(CSc2nnc(CNC(=O)c3cccs3)o2)o1
  2.2e-08, i, 1.1%, 1%[11.4 µM], i
> C=C(C)Cn1c(SCC#N)nc2ccccc2c1=O
  1.7e-08, i, -1.6%, ?, i
> CN1CCN(CCCNC(=O)Cn2nc(-c3ccccc3)ccc2=O)CC1
  1e-09, i, 0.5%, 10%, i

Arranged by SMILES length (rising): 3 of the compounds above
Value order – A647 fluor, Resorufin autofl, AID923, TSHR ag, A488 fluor
> Cc1nc(NC(CC(C)C)C(=O)O)c2nc(C)oc2n1 (stereo not given)
  3.9e-08, i, 0.9%, 12%, i
> CN1CCC2(CC1)CCN(S(=O)(=O)c1ccccc1)CC2
  1.5e-09, i, 0.4%, ?, i
> COc1ccc(/C(O)=C2/C(=O)C(=O)N(CCN(C)C)C2c2ccc(F)cc2)cc1Cl (stereo not given)
  1.3e-09, i, -0.3%, 13%, i

Next section:
Value order – A647 fluor, Resorufin autofl, AID923, TSHR ag, A488 fluor
> CC1(C)CC(=O)C=C(Nc2ccccc2NC(=O)c2cnccn2)C1
  5.1e-08, i, 1.7%, ?, i
> COCC(C)NC(=O)NC(=O)c1ccc(Cl)cc1 (stereo not given)
  1e-09, i, -2.0%, 3%, i
> CCOC(=O)c1cnn(-c2ccccn2)c1N
  2.6e-08, i, -1.2%, 0%[11.4 µM], i
> N#CC1=C(N)N(c2ccccc2)C(c2ccccc2)C1(C#N)C#N (stereo not given)
  1.8e-08, i, ., ., i
> CC(=O)c1ccc(OC2C(O)COC2/C=C/c2ccc(Cl)cc2)cc1 (stereo not given)
  ., ., -0.1%&0.6%[11.5 µM], -7%&-1%[11.4 µM], .
> C=C/C1=C/Cc2ccccc2C(C[N+](=O)[O-])C(C(=O)OC)(C(=O)OC)C1 (stereo not given)
  ., ., -1.3%[11.5 µM], ?, .
> COC(=O)c1cc(N2C(=O)C3C(C2=O)C2(C)C=CC3(C)O2)ccc1Cl (stereo not given)
  ., ., -1.2%, -2%, .
> CCn1nc(C(=O)NCCc2ccc(S(N)(=O)=O)cc2)c2ccccc2c1=O
  4.9e-09, i, -0.1%, 4%, i
> CC(C)C(=O)NCCn1ccc2ccccc21
  3.7e-08, i, -0.8%, 9%, i
> CC1(C)C(=O)OC(C(=O)c2ccccc2)C(C)(C)C1=O (stereo not given)
  ., ., 3.8%, 3%, .
> O=C(C1CCN(S(=O)(=O)N2CCOCC2)CC1)N1CCN(c2ccccc2)CC1
  4.2e-09, i, -1.1%, -9%[11.4 µM], i
> CCOC(=O)c1ccccc1NC(=O)Cn1cnc2c(cnn2-c2ccccc2)c1=O
  2.9e-08, i, 0.0%, ?, i
> Nc1c(Sc2ccccc2)c(=O)[nH]c(=O)n1Cc1ccccc1
  4.3e-08, i, -1.0%, 8%, i
> COc1ccc(-c2nnc(NC(=O)c3ccc(S(=O)(=O)N4CCc5ccccc5C4)cc3)o2)cc1
  1e-09, i, 0.9%, -6%, i
> Cc1ccc(-n2c(SCC(=O)Nc3cc(C)on3)nc3c(c2=O)SC(C)C3)cc1 (stereo not given)
  ., ., -2.6%, 8%, .
> CCCC(CCC(=O)OC)(C(=O)OCC)c1csc(N)n1 (stereo not given)
  2.1e-08, i, -0.9%, ?, i
> CCOC(=O)CSc1nnc(CNc2ccc(F)cc2)o1
  8.6e-09, i, -0.2%, ?, i
> Nc1nonc1C(=O)NCCNCc1cc(Br)ccc1OCc1ccccc1F
  1.7e-09, i, -1.6%, 8%, i
> COc1cc(Cn2ccnc2)c(OC)cc1Cn1ccnc1
  1e-09, i, ., ., i
> Cc1ccc(NC(=O)N(CCCN2CCOCC2)Cc2cc3cc4c(cc3[nH]c2=O)OCO4)cc1
  1.5e-09, i, 3.5%, 13%, i
> O=C(O)CN1CCOCCOCCN(CC(=O)O)CCOCCOCC1
  1e-09, i, -0.8%, 3%, i
> CC1(C)N=C(N)N=C(N)N1c1cccc(OCc2cccc(N)c2)c1
  5.7e-09, i, -2.4%[11.5 µM], -9%[11.4 µM], i
> O=C(Nc1c(-c2ccccc2)nc2sccn12)c1ccccc1
  ., ., 0.0%, -9%, .
> COCCn1c(Cc2ccccc2)nnc1SCC(=O)NC(C)(C)C
  6.4e-08, i, 0.6%, 0%, i
> COc1ccccc1NC(=O)C1=C(C)Nc2ncnn2C1c1ccccc1C (stereo not given)
  3.8e-09, i, 0.4%, 16%, i
> O=C(c1csc(Nc2ccccc2Cl)n1)N1CCCC1
  1.3e-09, i, -1.4%, -3%[11.4 µM], i
> Cc1cc(NC(=O)COc2cccc(C)c2C)no1
  ., ., 0.8%, 8%, .
> CC1C2CC(C(S(=O)(=O)N3CCOCC3)C2=O)C1(C)C (stereo not given)
  1.9e-08, i, 0.7%, -2%, i
> Cc1ccc(S(=O)(=O)NCCN=C(CN2CCOCC2)NS(=O)(=O)c2ccc(C)cc2)cc1
  8.6e-09, i, 1.4%, 16%, i
> O=C(c1ccc(S(=O)(=O)N2CCOCC2)cc1)N1CCN(c2ccc(F)cc2)CC1
  ., ., 1.6%, -2%, .

Single entries from the results shown:
Result for `CCCC(CCC(=O)OC)(C(=O)OCC)c1csc(N)n1` (stereo not given) in A647 fluor: 2.1e-08
Result for `COCCn1c(Cc2ccccc2)nnc1SCC(=O)NC(C)(C)C` in A647 fluor: 6.4e-08

Going on with the list:
Value order – A647 fluor, Resorufin autofl, AID923, TSHR ag, A488 fluor
> CCc1cccc(C)c1NC(=O)CCCC(=O)O
  ., ., 0.8%, -3%, .
> COc1ccccc1NC(=O)CSc1nnc(Cc2ccccc2)o1
  3.3e-08, i, 0.4%, 5%, i
> Cc1nc2ccc(S(=O)(=O)NC(C(=O)N3CCn4c3nc3ccccc34)C(C)C)cc2s1 (stereo not given)
  ., ., 1.0%, 8%, .
> O=c1cc(-c2cccc(O)c2)oc2cc(O)ccc12
  1e-09, i, 3.5%, -5%, i
> CCOc1ccc(NC(N)=O)cc1
  1e-09, i, -0.8%, 5%, i
> O=C(CSc1nnnn1C1CCCCC1)NCc1ccco1
  3.1e-08, i, 0.6%, 11%, i
> Cc1ccc(C(=O)NCc2occc2C(=O)O)o1
  2.9e-09, i, 2.2%, 4%, i
> COc1ccc(N(Cc2ccco2)C(=O)c2ccccc2F)cc1OC
  1.1e-08, i, 0.8%, ?, i
> Cc1cc(NC(=O)c2ccc(S(=O)(=O)N3CCCC3)cc2)nc2c1c(=O)oc1ccccc12
  1e-09, i, 1.2%, ?, i
> O=[N+]([O-])c1ccc(Nc2nc3ccccc3s2)cc1
  3.7e-08, i, 0.2%[11.5 µM], -7%[11.4 µM], i
> Cc1cccc(CSC2=NCCN2C(=O)c2ccco2)c1
  ., ., -1.5%, ?, .
> CCc1cc2cc(C(=O)N3CCN(Cc4ccccc4)CC3)sc2s1
  ., ., 0.2%, ?, .
> COc1ccc(S(=O)(=O)N2CCN(Cc3ccccc3)CC2)cc1
  1e-09, i, 1.8%, -2%, i
> CCN(CC)CCNCc1ccc(-c2ccc(Cl)cc2)o1
  1e-09, i, -1.5%, 6%, i
> CC1=C(C(=O)OC2CCCCC2)C(c2ccc(C)o2)C2=C(CCCC2=O)N1 (stereo not given)
  ., ., 3.2%, ?, .

Two of these compounds, reformatted:
| molecule | A647 fluor | Resorufin autofl | AID923 | TSHR ag | A488 fluor |
| --- | --- | --- | --- | --- | --- |
| O=C1CC(c2cc3c(cc2Br)OCO3)C2=C(CCCC2=O)N1 (stereo not given) | 3.1e-08 | i | 0.0% | -7% | i |
| Cn1c(NC(=O)c2cccc(Cn3cc(Cl)cn3)c2)nc2ccccc21 | 1.6e-08 | i | -1.8% | ? | i |

The list goes on.
Value order – A647 fluor, Resorufin autofl, AID923, TSHR ag, A488 fluor
> O=C(CCc1ccccc1)Nc1ncn[nH]1
  1e-09, i, 0.0%, ?, i
> O=C(NCc1ccccn1)c1ccc(NC(=O)c2ccco2)cc1
  1e-09, i, -0.3%, -3%, i
> Cc1cccc(S(=O)(=O)Nc2nc3ccccc3nc2NCc2ccco2)c1
  2.8e-09, i, 3.7%, ?, i
> Cc1cccc(N(CC(=O)NC2CCCCC2)C(=O)CCC(=O)Nc2ccccn2)c1
  2.7e-08, i, -3.4%, ?, i
> Cc1nc2ccccc2c(=O)n1NC(=O)c1c(O)c2c(n(CC(C)C)c1=O)CCCC2
  1e-09, i, 1.0%, 27%, i
